# High-throughput results (PubChem)
# VDR inhibitor: inhibitors of human vitamin D receptor; P11473; VDR-SRC2-3 peptide fluorescence polarization, 2 h; Potency, µM, for the others: max response, negative = inhibition, usual class: inhibitors; hit rate 0.93% among 400,000; AID 504847; active = well fitted inhibition curve with a large enough effect; inconclusive = small, poorly fitted or top-dose-only effect, or another doubt; inactive = no such curve, though single readings can be large or run the other way; also: series mostly up to about 120 µM
# Target sequence (P11473 whole entry, looked up): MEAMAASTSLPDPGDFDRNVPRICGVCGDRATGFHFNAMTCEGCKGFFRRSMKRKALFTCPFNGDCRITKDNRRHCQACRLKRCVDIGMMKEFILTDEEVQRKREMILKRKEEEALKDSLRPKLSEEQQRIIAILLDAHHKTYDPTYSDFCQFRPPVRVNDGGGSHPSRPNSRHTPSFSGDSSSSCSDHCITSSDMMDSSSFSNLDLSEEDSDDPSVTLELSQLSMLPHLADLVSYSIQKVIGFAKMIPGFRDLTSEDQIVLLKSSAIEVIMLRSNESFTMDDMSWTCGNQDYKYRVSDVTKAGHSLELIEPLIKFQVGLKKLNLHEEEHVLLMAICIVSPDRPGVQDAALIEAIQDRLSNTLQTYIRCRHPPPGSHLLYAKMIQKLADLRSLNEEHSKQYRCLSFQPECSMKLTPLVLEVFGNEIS
#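 Fluorescence polarization assay of small-molecule disruption of VDR binding to coregulator peptide SRC2-3. Compounds and controls pin-transferred, then read after 2 h incubation at ambient room temperature.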
# * marks the source's active call; other numbers are inactive results; ? = inconclusive; & = joins results of further samples. % is scaled to controls: 0 for no effect and ±100 for the full control effect; potency is read from the fitted curve at half-maximal effect.
SMILES,VDR inhibitor
COc1ccc(S(=O)(=O)N2CCCC(C(=O)NCc3ccncc3)C2)cc1Cl (configuration not stated),15%
CC(=O)N=c1sc2nc3ccccc3nc2n1N(C(C)=O)C(C)=O,?
O=C(NN=C1CCN(Cc2ccccc2)CC1)C(O)c1ccccc1 (configuration not stated),-24%
O=C(COC(=O)c1ccc([N+](=O)[O-])cc1Cl)Nc1cccnc1Cl,5%
COc1ccc(S(=O)(=O)N2CCCCC2)cc1NS(=O)(=O)c1ccccc1F,-6%
O=[N+]([O-])c1ccc(COc2ccc(CN3CCCCC3)cc2)cc1,2%
CCCCNS(=O)(=O)c1cccc(S(=O)(=O)N2CCCC2)c1,18%
O=C(NC1CCCCC1)C(c1ccccc1)N(Cc1ccco1)C(=O)Cn1cnc2ccccc21 (configuration not stated),2%
Cc1c(C)n(C(=O)CN2CCN(c3ccccn3)CC2)c2ccccc12,13%
COc1ccccc1-c1nnn(C/C(N)=N/O)n1,5%
COc1ccc(CN2CC(C(=O)N3CCOCC3)CC2=O)cc1 (configuration not stated),-20%
COc1ccc(C(CNC(=O)c2c(C)nn(Cc3ccccc3)c2Cl)N2CCOCC2)cc1 (configuration not stated),9%
CCOc1ccc(OCC(=O)OCc2csc(CC(=O)Nc3ccccc3C)n2)cc1,-14%
C#CCOC(=O)CCCNc1ccc([N+](=O)[O-])cc1[N+](=O)[O-],-9%
CCCCNC(=S)NNC(=O)c1csc(C)c1,-10%
Cc1ccc(S(=O)(=O)CC(=O)Nc2nnc(C)s2)cc1,-2%
CC1=[N+](C)c2ccc3ccccc3c2C1(C)C,45µM*
Cc1onc(-c2ccccc2)c1C(=O)Nc1ccc(S(=O)(=O)NC2=NCCCCC2)cc1,-8%
CCN(CC)CCCNC(=O)c1ccc2c(Cl)c3c(nc2c1)CCCC3,4%&-4%
O=C1NC2(CCCCC2)N=C1c1ccccc1,3%
CCCC(=O)N1c2ccccc2[C@@H](N(C(C)=O)c2ccccc2)C[C@H]1C,-1%
COC(=O)c1ccc(Oc2nc(Nc3ccc(F)cc3)nc(N3CCCC3)n2)cc1,-10%
O=c1[nH]c(N2CCOCC2)cc2ccccc12,2%
CCOc1ccc(CCNC(=O)c2ccc(CS(=O)(=O)c3ccccc3C)o2)cc1OCC,-11%
COc1ccccc1NS(=O)(=O)c1cccc(NC(=O)Nc2cccc(Cl)c2)c1,5%

# Seven neighbouring compounds from above:
SMILES,VDR inhibitor
CCN(CC)CCCNC(=O)c1ccc2c(Cl)c3c(nc2c1)CCCC3,4%&-4%
O=C1NC2(CCCCC2)N=C1c1ccccc1,3%
CCCC(=O)N1c2ccccc2[C@@H](N(C(C)=O)c2ccccc2)C[C@H]1C,-1%
COC(=O)c1ccc(Oc2nc(Nc3ccc(F)cc3)nc(N3CCCC3)n2)cc1,-10%
O=c1[nH]c(N2CCOCC2)cc2ccccc12,2%
CCOc1ccc(CCNC(=O)c2ccc(CS(=O)(=O)c3ccccc3C)o2)cc1OCC,-11%
COc1ccccc1NS(=O)(=O)c1cccc(NC(=O)Nc2cccc(Cl)c2)c1,5%

# Next part.
SMILES,VDR inhibitor
Cc1ccc(S(=O)(=O)N2CCCCC2)cc1NC(=O)C1CC1,2%
CCN1C[C@@H]2[C@@H]3C(=O)N(Cc4ccccc4)C(=O)[C@@H]3[C@](C)(C1=O)N2C(=O)c1ccc(Br)cc1,-6%
NC(=O)C1CCN(c2nc(-c3ccc(F)cc3)cs2)CC1,3%
O=C(NC(Cc1ccccc1)C(=O)O)/C(=C/c1ccco1)NC(=O)c1cccc([N+](=O)[O-])c1 (configuration not stated),5%
c1ccc(COC2CCCN(Cc3nc(-c4cccs4)no3)C2)nc1 (configuration not stated),3%
CC(C)C(c1nnnn1C1CCCC1)N1CCN(c2ccccc2F)CC1 (configuration not stated),-6%
Cc1nc2cc(C(F)(F)F)ccc2n1CCNc1nc(-c2ccc(F)cc2)cs1,-1%
CCOC(=O)CSc1nnc(-c2ccc([N+](=O)[O-])cc2)o1,3%
CCC(=O)NC(Nc1cc(C)cc(C)n1)(C(F)(F)F)C(F)(F)F,-23%
CC(=O)Oc1ccc(-c2ccc(C(=O)Nc3cccc(S(=O)(=O)N4CCOCC4)c3)cc2)cc1,2%
COc1ccccc1N1CCN(C(=O)c2ccc3[nH]c4c(c3c2)CCCC4)CC1,-26%
CCO[C@@H]1OC(C(N)=O)=C[C@H](C2CC2)[C@H]1CCCO,-11%
O=C(Nc1sc(-c2ccccc2)cc1C(=O)O)c1ccccc1,-14%
Cc1nn2cc(-c3ccc(N)cc3)nc2s1,-11%
COC(=O)C(Cc1ccccc1)NC(=O)c1cccc(S(=O)(=O)N(C)C)c1 (configuration not stated),-1%
Cc1ccc(S(=O)(=O)N2CCOCC2)cc1C(=O)NC(C)CCc1ccccc1 (configuration not stated),-10%
CCC(CC)c1nnc(NC(=O)c2cccc(S(=O)(=O)N3CCOCC3)c2)s1,-3%
CCOc1ccc(NC(=O)c2cc(C)nc3c2c(C)nn3-c2cccc(F)c2)cc1,8%
Nc1ccc(Oc2ncccn2)c(Cl)c1,18%
CCOc1ccc(NC(=O)c2c(C)oc3nc(C)nc(N4CCOCC4)c23)cc1,15%
CCCNC(=O)c1ccccc1NS(=O)(=O)c1ccc(OC)c(OC)c1,5%
Cc1ccc(Nc2sc(C(=O)c3ccccc3)c(N)c2S(=O)(=O)c2ccccc2)c(C)c1,4%
COc1ccc(OC)c(CNc2ncc(-c3ccc(F)cc3)n2C)c1,-27%
CCOC(=O)C1CCCN(C(=O)c2sc3nc(-c4ccc(OC)cc4)cn3c2C)C1 (configuration not stated),17%
CN(CC(=O)NCCc1ccc(F)cc1)Cc1ccccc1,0%

# Individual results from the entries so far:
# For VDR inhibitor, Cc1ccc(S(=O)(=O)N2CCOCC2)cc1C(=O)NC(C)CCc1ccccc1 (configuration not stated) has the entry -10%
# For VDR inhibitor, O=C(NC(Cc1ccccc1)C(=O)O)/C(=C/c1ccco1)NC(=O)c1cccc([N+](=O)[O-])c1 (configuration not stated) has the entry 5%
# For VDR inhibitor, c1ccc(COC2CCCN(Cc3nc(-c4cccs4)no3)C2)nc1 (configuration not stated) has the entry 3%

# Following part.
SMILES,VDR inhibitor
CCC1(C)Cc2c(C#N)c(N)n(-c3ccccc3)c(=S)c2CO1 (configuration not stated),-25%
Cc1ccc(-c2cc(C(=O)Oc3ccccc3)c3cc(C)ccc3n2)cc1,-11%
O=C(c1cccs1)N1CCN(C(=O)C(c2ccccc2)c2ccccc2)CC1,-17%
COc1ccc(-c2csc(N3CCN(Cc4ccc5c(c4)OCO5)CC3)n2)cc1,14%
Oc1c(Br)cc(Br)cc1C=Nc1cccc2ncccc12,?
Cc1ccc(S(=O)(=O)N2CCC(C(=O)NCCCOC(C)C)CC2)cc1,-6%
CCOC(=O)C1CCCN(S(=O)(=O)c2ccc3[nH]c(=O)oc3c2)C1 (configuration not stated),11%
CCc1nnc2c(NCCc3ccc(OC)c(OC)c3)nc3ccccc3n12,?
CC(C)OC(=O)Cn1cnc2ccc(Br)cc2c1=O,-1%
COC(=O)c1cccc(NC(=O)NC(=O)c2ccccc2Cl)c1,-8%
Nc1ncnc(Oc2ccccc2F)c1[N+](=O)[O-],-8%
COC(=O)c1c(NC(=O)CSc2nnc3ccccn23)sc2c1CCC2,-3%
CC(C)c1ccc(Nc2nc(Cl)nc(NCc3ccco3)n2)cc1,-12%
CC(C)OCCCNc1nc(Cl)nc2c1cnn2C,-9%
Cc1ccc(CNC(=O)Cn2c(=O)n(Cc3ccccc3)c(=O)c3sc4ccccc4c32)cc1,1%
COc1ccccc1C1CCN(Cc2ccccc2Cl)CC1,2%
O=C(CC1SC(=O)NC1=O)Nc1ccc(Cl)cc1 (configuration not stated),0%
Cc1cccc(Nc2ccccc2)c1,11%
N#Cc1c(-c2ccc(F)cc2)c2c([nH]c1=O)-c1ccccc1OC2,3%
COc1ccc(-n2c(SCC#N)nnc2-c2cccnc2)cc1,-2%
COC(=O)CSc1ncc2c(n1)-c1ccccc1N(Cc1ccc(Cl)cc1)S2(=O)=O,10%
CN(CCNC(=O)C1CCC(=O)N(Cc2ccc(Cl)cc2)C1)CCc1ccccc1 (configuration not stated),-1%
CCn1cc(S(=O)(=O)c2ccc(Cl)cc2)c(=O)c2cc(OC)ccc21,-8%
O=C(COC(=O)Cc1cccc(C(F)(F)F)c1)Nc1ccc2[nH]c(=O)[nH]c2c1,6%
c1csc(C(c2nnnn2C2CCCC2)N2CCOCC2)c1 (configuration not stated),13%

# Records listed above printed as active in VDR inhibitor:
SMILES,VDR inhibitor
CC1=[N+](C)c2ccc3ccccc3c2C1(C)C,45µM*

# (list continues)
SMILES,VDR inhibitor
O=C(c1cccc(Br)c1)N1CCCC1,-14%
COC(=O)c1cc2sc(Cl)cc2n1CC(=O)Nc1cc(OC)cc(OC)c1,1%
CC(C)C(=O)Nc1cccc(COc2ccc(CN(CCc3ccccc3)C(=O)OC(C)(C)C)cc2)c1,3%
Cc1ccc2c(c1)c(=O)c1ccccc1n2CCCC(=O)Nc1ccc(C)c(C)c1,15%
CCN(CC)CCCN1C(=O)C(=O)/C(=C(/O)c2ccc(OC)cc2)C1c1ccco1 (configuration not stated),5%
Cc1ccc(-c2csc(=S)n2CC(=O)OCC(=O)NCc2ccco2)cc1,-12%
O=C(COC(=O)c1cncc(Br)c1)Nc1ccc(N2CCCCC2)cc1,-20%
Cc1onc(-c2ccccc2Cl)c1C(=O)N1CCN(c2ccc(F)cc2)CC1,10%
Cc1ccc(CCNC(=O)CNS(=O)(=O)c2ccc3nc(C)sc3c2)cc1,-11%
CC(=O)Cc1nsc(NC(=O)c2cn(-c3ccccc3)nc2-c2ccc(Br)cc2)n1,10%
Cc1cccc(NC(=O)CSc2nnc(CSc3nc(C)cc(C)n3)n2Cc2ccco2)c1,13%
CC(OC(=O)c1ccccc1Br)C(=O)Nc1nc(-c2cccc([N+](=O)[O-])c2)cs1 (configuration not stated),5%
Nc1nc(SCc2cccnc2)c2ncn(C3OC(CO)C(O)C3O)c2n1 (configuration not stated),5%
CCCC(C)NC(=O)c1cc(C(=O)OC)cc([N+](=O)[O-])c1 (configuration not stated),-8%
CCn1c2ccccc2c2cc(NC(=O)C(C)OC(=O)c3ccc(NC(=O)CC#N)cc3)ccc21 (configuration not stated),-5%
CC(C)(C)OC(=O)N1CCOCCOCCNCCOCCOCC1,-10%
CCN(c1ccc(C)cc1C)S(=O)(=O)c1nnc(NC(=O)c2ccccc2OC)s1,12%
COc1ccc(NC(=O)Cn2c(=O)n(CCc3ccccc3)c(=O)c3c4c(sc32)CCCC4)cc1,5%
CCOc1ccc(C2=Nc3ccccc3C(c3ccc(N4CCOCC4)cc3)=NN2)cc1,-3%
O=c1oc2ccccc2cc1-c1cn2cc(Cc3ccc(Br)cc3)sc2n1,22%
CCn1c(C(Cc2ccccc2)NC(=O)COC)nc2ccccc21 (configuration not stated),6%
CCOc1ccc(/C=C(/C#N)c2nnc(N3CCOCC3)n2-c2ccccc2)cc1OC,1%
Cc1ccc(Sc2ncccc2N)cc1,13%
CCOC(C)OCC,-8%
COc1ccc(-c2cc(C(=O)Oc3cccc(C)c3)c3cc(C)ccc3n2)cc1,-23%

# The list goes on (4 carried over from the part before).
SMILES,VDR inhibitor
CCOc1ccc(/C=C(/C#N)c2nnc(N3CCOCC3)n2-c2ccccc2)cc1OC,1%
Cc1ccc(Sc2ncccc2N)cc1,13%
CCOC(C)OCC,-8%
COc1ccc(-c2cc(C(=O)Oc3cccc(C)c3)c3cc(C)ccc3n2)cc1,-23%
Cc1cc(C)cc(C(=O)Nc2ccncc2)c1,2%
O=[N+]([O-])c1cc(/C=N/Nc2nc3ccccc3[nH]2)c(O)cc1O,?
Cc1ccc(N2CCn3c2nc2c3c(=O)n(C/C=C/c3ccccc3)c(=O)n2C)cc1C,6%
COc1ccc(-n2nc([N+](=O)[O-])c(=NCCCN3CCCC3=O)n2O)cc1,-37%
COCCNc1nc2nonc2nc1N1CCC(N(C)C)C1 (configuration not stated),-6%
CCCCOC(=O)CCc1c(C)[nH]c(=S)[nH]c1=O,7%
CCOC(=O)c1cccc(NC(=O)Cn2c(=O)nc(-c3ccccc3)c3ccccc32)c1,-2%
N#Cc1ccc(CN2CCCC3(CCN(C(=O)c4csnn4)CC3)C2)cc1,5%
COCCn1cnnc1SCC(=O)Nc1ccc(N2CCCCC2)cc1,-12%
CCOc1ccc(C(=O)Nc2cccc(SC)c2)cc1,-2%
Cc1ccc(C(=O)N/C(=C\c2cn(C)c3ccccc23)C(=O)OCCN(C)C)cc1,14%
O=C(NCC(=O)N(CCN1CCOCC1)C(C(=O)NC1CCCC1)c1cccs1)c1ccco1 (configuration not stated),-18%
O=C(CSc1ccc(Cl)cc1)Nn1cnnc1,71µM*
O=C(NCc1cccs1)c1ccc(N2CCCCC2)nc1,-23%
Cc1ccc2nc(SCc3ccc([N+](=O)[O-])cc3)[nH]c2c1,-2%
COc1cccc(CSc2nc3ccccc3[nH]2)c1,3%
COc1ccc(N2CC(C(=O)N3CCOCC3)CC2=O)cc1 (configuration not stated),2%
O=C(NC1CCCC1)c1cnc2n(c1=O)CCS2,1%
Cc1ccnc(N2CCC(C(=O)NNC(=O)c3ccccc3C)CC2)n1,0%
CCC[C@H]1NC(=O)[C@H](C)N(C)C(=O)C(C)(C)C(=O)C(C)NC(=O)[C@H](Cc2ccc(OC)cc2)N(C)C(=O)[C@H](C(C)C)N(C)C(=O)CNC(=O)[C@H](CC(C)C)N(C)C(=O)CNC(=O)[C@H]([C@@H](C)CC)OC(=O)[C@H]1C (some centres not stated),-2%
COc1ccc(OC)c(C2NC(=O)NC(C)=C2C(=O)Nc2ccc(C)cc2)c1 (configuration not stated),-3%
Cc1ccc(N2N=C(c3ccc(F)cc3)CC2c2ccco2)cc1 (configuration not stated),?
CC1CN(c2nc(Nc3ccccc3F)nc(N)c2[N+](=O)[O-])CC(C)O1 (configuration not stated),8%
Cc1cccc(CN2CCCC(C(=O)Nc3ccccc3Oc3cccnc3)C2)c1 (configuration not stated),2%
O=C(Nc1ccc(C(=O)NC2CCCCC2)cc1)c1cccnc1,17%
Cn1c(SCC(=O)NC2CC2)nnc1-c1ccco1,6%

# Only part of the results is shown; the hit share may differ from the screen's.
